MgrA-DNA mod = alters Staphylococcus aureus MgrA binding to DNA; fluorescence polarization; inhibition, %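 (about 10 µg/mL by stock and volumes)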; AID 602314; 84,000 tested, 0.13% active;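 active means above 50% in either of two replicates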;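 further: 0% = protein plus DNA without compound and 100% = DNA alone without protein; higher means less MgrA bound to DNA so lower polarization; one replicate is shown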
S aureus helic = S. aureus DNA helicase inhibition | purified S. aureus helicase, fluorescence unwinding assay; about half of the hits fall short of the stated cut | inhibition, %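 (tested at about 80 µM)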 | 120,000 tested, 0.05% active | AID 485395;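 active means both duplicates at 50% or more, or one of them with a favoured structure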;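 further: 0% = mean of negative control wells and 100% = mean of positive control wells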
The depositor's hits bear a star; i = inactive; . = no result given.

MgrA-DNA mod	S aureus helic	molecule
-2.1	.	CC(C)(C)C(=O)NCC1COc2ccccc2O1 (stereo not given)
0.7	12	CCN(CC)S(=O)(=O)c1ccc(C(=O)Nc2ccc(-n3nncc3-c3ccccc3)cc2)cc1
.	6	COc1ccc(CNC(=O)c2cnc3ccccn3c2=O)cc1
-0.4	.	Cn1cc(C(=O)Nc2ccc(F)c(Cl)c2)c(N)n1
.	-16	CC1CN(CCC(=O)NN)CC(C)O1 (stereo not given)
-4.6	.	O=c1onc(-c2cccc(Cl)c2Cl)n1-c1cccnc1
.	-21	N/C(Cc1nc2ccccc2[nH]1)=N\O
.	9	Cc1sc(-n2cccc2)c(C(=O)OCc2ccc(C#N)cc2)c1C
.	-12	O=C(Cn1nnc(-c2ccccc2)n1)N/N=C1\CCCc2ccccc21
3.1	-16	O=C(NCCc1ccccc1)Nc1ccccc1
.	-15	OCCN1CN(c2nc3ccccc3s2)CN(c2nc3ccccc3s2)C1
-1.9	-5	COC(=O)CCSc1ncc(C(F)(F)F)cc1Cl
-5.2	-1	Cc1ccc(OCC(=O)OC2CCCN(C)C2)cc1 (stereo not given)
.	11	COc1cccc(OCC(=O)NCc2ccccc2)c1
0.2	.	CN(C)c1ccc(CC(C#N)C#N)cc1
.	0	Cc1nc2oc(C(=O)c3ccccc3)c(N)c2c2c1COC(C)(C)C2
-2.2	.	NS(=O)(=O)c1ccccc1Sc1ccccc1C(=O)O
0.1	8	O=C(Nc1ccccc1Cl)c1cccs1
-0.1	0	Cc1ccc(-c2nnn(CC(=O)Nc3cccc4cccnc34)n2)o1
-1.2	-7	COc1ccc2cc(Br)ccc2c1CC(=O)Nc1nccs1
.	-3	Cc1ccc(S(=O)(=O)N2CCCC2C(=O)Nc2cc(C)on2)cc1 (stereo not given)
0.7	.	Cc1cccc(-c2nc3cc(C)ccc3o2)c1
-1.0	.	CCSCCOC(=O)C1=C(C)NC2=C(C(=O)CC(c3ccc(OC)cc3)C2)C1c1ccc(O)c(OC)c1 (stereo not given)
20	7	CC(Oc1ccc(F)cc1)C(=O)Nc1cccc(-c2nn[nH]n2)c1 (stereo not given)
.	-11	N#Cc1ccc(OCC(=O)N2CCCC2=O)cc1
-1.3	.	Cc1onc(-c2ccccc2)c1C(=O)OCC(=O)c1ccccc1
.	-3	COc1ccc(Oc2nnc(C)c3ccccc23)cc1
-0.1	18	Cc1ccc2nc(SCc3c(C)c(C)cc(C)c3C)[nH]c2c1
.	0	O=C(CNS(=O)(=O)c1ccccc1)Nc1cccc(Cl)c1
48*	12	Cc1ccc(S(=O)(=O)N=C2C=CC(=O)C=C2)cc1
-0.1	.	c1csc(-c2cc3ccccc3[nH]2)c1
-0.9	.	N#Cc1cnc2c(c1)CCCC2
.	15	OC(c1ccccc1)c1nccc2ccccc12 (stereo not given)
1.3	12	CCCc1cc(=O)oc2cc(C)cc(OCC(=O)OCC)c12
2.8	.	Cc1c(C(=O)Oc2cccc(C(F)(F)F)c2)n(C)oc1=O
-2.6	.	Cc1oc(C(C)(C)C)cc1C(=O)NCc1ccc2c(c1)OCO2
-1.4	9	O=C(COc1ccccc1)Nc1nc2ccccc2n1CCN1CCCCC1
-2.0	.	C=CCn1c(SCc2ccc(C(=O)NCCO)cc2)nc2sc3c(c2c1=O)CCCC3
10	6	Cc1cc(C(=O)Nc2ccc(Cl)cc2)n(-c2ccccc2)n1
-1.4	.	COC(=O)c1ccc(C(=O)Nc2ccc3nc(NC(=O)c4ccc(C(=O)OC)cc4)sc3c2)cc1
.	5	CCc1ccc(-c2cc(C)no2)cc1S(=O)(=O)N1CCc2ccccc21
-0.5	2	CC(Oc1ccc2ccccc2c1)C(=O)NN (stereo not given)
.	2	COc1ccc(OC)c(S(=O)(=O)NCCc2ccccc2)c1
-2.0	.	C=CCc1ccc(Oc2ccc([N+](=O)[O-])cn2)c(OC)c1
.	-15	COC(=O)c1cc(C(=O)OC)c(=O)[nH]c1C
0.6	-3	CCOC(=O)c1c(C(F)(F)F)cc(-c2ccccc2)nc1C
.	-7	O=C(COC(=O)Cc1cccc(C(F)(F)F)c1)Nc1ccc2c(c1)OCO2
1.2	7	CC1(C)CC(=O)C2=C(C1)NC(Nc1nc3ccccc3s1)=NC2c1cccnc1 (stereo not given)

Part of the list above, in markdown:
| compound | MgrA-DNA mod | S aureus helic |
| --- | --- | --- |
| O=C(COC(=O)Cc1cccc(C(F)(F)F)c1)Nc1ccc2c(c1)OCO2 | . | -7 |
| CC1(C)CC(=O)C2=C(C1)NC(Nc1nc3ccccc3s1)=NC2c1cccnc1 (stereo not given) | 1.2 | 7 |

(further entries)
MgrA-DNA mod	S aureus helic	molecule
-2.2	.	CC(C)C[C@@H](/C=C/S(C)(=O)=O)NC(=O)[C@H](CC(C)C)NC(=O)[C@H](CC(C)C)NC(=O)OCc1ccccc1
-0.1	0	COc1ccccc1C(=O)Nc1ccc2c(c1)COC2=O
12	15	COc1ccc2c(c1)c(C(=O)O)c(C)n2-c1ccc(Cl)cc1
-0.4	.	O=C1COCC(=O)N1c1ccccn1
.	-6	Cc1ccc(C(=O)N2CCN(c3ccccc3F)CC2)cc1S(=O)(=O)N1CCCC1
4.7	.	COc1ccc(Cc2n[nH]c(=S)n2-c2ccc(Cl)cc2)cc1OC
-1.4	.	COc1ccc(C2=NN3C(C2)c2cc(Cl)ccc2OC3c2ccncc2)cc1OC (stereo not given)
16	1	Cc1ccc(C(c2nnnn2CS(=O)(=O)c2ccc(C)cc2)N2CCCC2)cc1 (stereo not given)

Overlap with the part before: seven entries, followed by the next part.
MgrA-DNA mod	S aureus helic	molecule
-0.1	0	COc1ccccc1C(=O)Nc1ccc2c(c1)COC2=O
12	15	COc1ccc2c(c1)c(C(=O)O)c(C)n2-c1ccc(Cl)cc1
-0.4	.	O=C1COCC(=O)N1c1ccccn1
.	-6	Cc1ccc(C(=O)N2CCN(c3ccccc3F)CC2)cc1S(=O)(=O)N1CCCC1
4.7	.	COc1ccc(Cc2n[nH]c(=S)n2-c2ccc(Cl)cc2)cc1OC
-1.4	.	COc1ccc(C2=NN3C(C2)c2cc(Cl)ccc2OC3c2ccncc2)cc1OC (stereo not given)
16	1	Cc1ccc(C(c2nnnn2CS(=O)(=O)c2ccc(C)cc2)N2CCCC2)cc1 (stereo not given)
-3.2	.	COC(=O)CS(=O)(=O)c1cc(C)c(Cl)cc1C
.	-3	O=C(CCCn1c(=S)[nH]c2cc3c(cc2c1=O)OCO3)NC1CCCCC1
1.1	4	Cc1cccc(-c2nc(C)c(CCNC(=O)c3c(F)cccc3F)s2)c1
.	-29	CCOC(=O)C(CC)C(N)Cc1ccc(OC)c(OC)c1 (stereo not given)
-2.3	.	CNC(=O)n1nccc1-c1sc2ccccc2c1C
.	-23	CCOC(=O)c1cc2sccc2n1CCC(=O)O
.	31	Clc1ccc2c(c1)NNc1nncn1-2
.	3	CC(C)c1ccc(-c2nnn(CC(=O)c3ccc(NS(C)(=O)=O)cc3)n2)cc1
-0.8	.	O=S(=O)(c1sc(Br)cc1Br)N1CCSCC1
0.6	.	COc1ccc(OC)c(S(=O)(=O)NC2CC2)c1
.	2	O=C(O)c1ccccc1Nc1ccccc1C(=O)O
0.3	12	O=C(Cc1cccs1)NCc1ccc(Cl)cc1
.	0	CC1(C)CC(=O)C=C(Nc2ccc3c(c2)OCO3)C1
1.3	.	CCOC(=O)c1ccc2c(c1)CC/C(=C\c1ccc(Cl)cc1Cl)C2=O
.	10	O=c1c2ccccc2c(C=NCCCN2CCOCC2)c(O)n1Cc1ccccc1
.	2	Cc1nc(Cc2nnc(SCC(=O)NC(=O)c3cccn3C)o2)cs1
.	16	Nc1[nH]c(N=NC(=O)c2cccc(S(=O)(=O)N3CCOCC3)c2)c2ccccc12
-1.7	.	CCOC(=O)Cc1csc(/N=C/c2nc(-c3ccc(Br)cc3)oc2O)n1
29	0	O=C(Nc1ccc(N2C(=O)C=CC2=O)cc1Cl)c1ccco1
.	0	CCC(C)NC(=S)Nc1ncccc1C(=O)OC (stereo not given)
.	-18	C=C1c2ccccc2N=C(SCC(=O)Nc2cc(C)ccc2OC)N1C
.	-13	N#Cc1cc(C(=O)c2ccccc2O)coc1=O
.	10	N#Cc1nc(COc2ccccc2)oc1N1CCCCC1
-7.2	-9	Fc1ccccc1-c1csc(-c2cccnc2)n1
.	13	CCN(CC)S(=O)(=O)c1cc(C(=O)Nc2cccc3c2C(=O)NC3=O)ccc1Cl
-0.9	2	COc1cccc(C(=O)NCCSc2ccc(C)cc2)c1
.	22	CSC1=C(C#N)C(c2ccc3c(c2)OCO3)C2=C(CCCC2=O)N1 (stereo not given)
.	-12	C=C(C)CN(CC)c1nc(N)c2c(N)nc3c(c2c1C#N)CC(=O)N3CC1CCCO1 (stereo not given)
.	-8	CC(C)(C)c1ccc(-c2nnc(SCCC#N)n2C2CCCC2)cc1
13	-87	C#CCN1C(=O)S/C(=C/C=C/c2ccc(N(C)C)cc2)C1=O
-3.8	-2	CCC1(C)CC(C(CCN)c2ccc(C)cc2)CCO1 (stereo not given)
.	17	CCCN1CCN(CCCNC(=O)C2CCN(c3ncnc4c3sc3cccc(F)c34)CC2)CC1
2.0	-2	Cn1nc(CC(=O)NN)c2ccccc2c1=O
.	-4	CC1CCCC(C)N1C(=O)COC(=O)c1ccc(-n2cccc2)cc1 (stereo not given)
.	7	Clc1ccc(OCc2nnc3c4cnn(-c5ccccc5)c4ncn23)cc1
-2.6	8	S=C(NCc1ccco1)Nc1ccc2nc(-c3ccccn3)c(-c3ccccn3)nc2c1
.	-14	C(=C\c1ccccc1)/CN1CCN(c2ncnc3sccc23)CC1
3.7	-3	ON(Cn1nnc2ccccc21)Cn1nnc2ccccc21
.	12	COc1cc(C2c3c(oc4ccccc4c3=O)C(=O)N2c2nnc(C)s2)ccc1O (stereo not given)
.	9	O=C(CSc1nnnn1-c1ccccc1)NCC1CCCCC1
4.8	.	Clc1ccc(Nc2ccc(-c3ccccc3)nn2)cc1
.	7	CC(=O)Nc1nc(-c2ccccc2)cc(-c2ccco2)c1C#N
-4.5	18	O=C(NC1CCCCC1)N1CCN(Cc2ccccc2)CC1
8.9	2	O=C(O)C1C2C=CC(C3CC23)C1C(=O)N1CCc2ccccc21 (stereo not given)
.	-1	CCN1C(=O)NC(c2cccnc2)C(C(=O)OC)=C1C (stereo not given)
0.3	2	O=C(COc1ccc(Cl)cc1)NCCc1ccccc1
.	0	CC(Sc1nnc(-c2cccs2)n1C1CC1)C(=O)c1ccc(F)c(F)c1 (stereo not given)
.	36	OCCSc1nc2ccccc2n1CCOc1ccccc1
-1.9	.	COc1cc2c(cc1OC)CN(S(=O)(=O)c1ccc3c(c1)CCC(C)(C)O3)CC2
-1.2	-8	CC1Cc2ccccc2N1C(=O)/C=C/c1cccc(Br)c1 (stereo not given)
2.5	2	CCN1CCN(CC(O)COCCC23CC4CC(CC(C4)C2)C3)CC1 (stereo not given)
-2.2	7	Fc1cccc(CSc2nc3ccccc3c3nc4ccccc4n23)c1
0.5	0	CCc1ccc(NC(=O)N2CC(CC)Sc3ccccc32)cc1 (stereo not given)
23	i	Cc1ccc(/C=C2\CC/C(=C\c3ccc(C)o3)C2=O)o1
.	5	Cn1c(=O)c2cc(C(=O)O)sc2c2ccccc21
7.7	5	C=CCn1c(=N)c(C(N)=O)cc2c(=O)n3ccccc3nc21

(next part)
MgrA-DNA mod	S aureus helic	molecule
-1.5	3	CCOc1ccccc1NC(=O)Nc1cc(C(=O)O)ccc1C
2.6	5	CC(C)(C)c1nc2scc(-c3ccccc3)c2c(=O)o1
.	-18	O=C(Nc1nc(-c2ccccc2)cs1)C1CCCO1 (stereo not given)
.	17	Cc1cc(Nc2ccc3c(c2)OCCO3)n2ncnc2n1
.	7	CC1CCN(Cn2cnn(CN3CCC(C)CC3)c2=S)CC1
1.9	4	COc1ccc(C2=NS(=O)(=O)N(C)C(C(=O)N(C)Cc3ccccc3)=C2)cc1
10	13	O=C(Nc1nnc(C(F)(F)F)s1)c1ccccc1
.	-3	NCCC(c1ccccc1)c1ccco1 (stereo not given)
.	7	CCN(CC(=O)Nc1ccccc1OC)CC(=O)NC1CCCc2ccccc21 (stereo not given)
.	-6	Cn1c2ccccc2c2cc(C(=O)O)sc21
-2.3	17	CC1CC(=O)C2=C(C1)Nc1ccccc1N(C(=O)COc1ccccc1)C2c1ccco1 (stereo not given)
-3.5	9	CC1=C(CCN2CCN(c3ccccc3)CC2)C(C)(C)CCC1
.	9	COC(=O)c1cc(-c2ccccc2)no1
.	5	CCN(CCC#N)c1ccc(CNCC2CN(Cc3ccccc3)CCO2)c(C)c1 (stereo not given)
.	11	O=C1CN(C(=O)Cn2nnc(-c3cccc(C(F)(F)F)c3)n2)c2ccccc2N1
.	-14	Cc1ccccc1NC(=S)Nc1ccc(C#N)cc1

Some of these compounds in order of their number in S aureus helic, lowest first.
MgrA-DNA mod	S aureus helic	molecule
.	-14	Cc1ccccc1NC(=S)Nc1ccc(C#N)cc1
.	-6	Cn1c2ccccc2c2cc(C(=O)O)sc21
.	5	CCN(CCC#N)c1ccc(CNCC2CN(Cc3ccccc3)CCO2)c(C)c1 (stereo not given)
.	7	CCN(CC(=O)Nc1ccccc1OC)CC(=O)NC1CCCc2ccccc21 (stereo not given)
.	9	COC(=O)c1cc(-c2ccccc2)no1
.	11	O=C1CN(C(=O)Cn2nnc(-c3cccc(C(F)(F)F)c3)n2)c2ccccc2N1
-2.3	17	CC1CC(=O)C2=C(C1)Nc1ccccc1N(C(=O)COc1ccccc1)C2c1ccco1 (stereo not given)

(continued)
MgrA-DNA mod	S aureus helic	molecule
.	14	CN(C)S(=O)(=O)c1ccc2oc3n[nH]c(=S)n3c2c1
1.4	.	O=C1Nc2cc(C(F)(F)F)ccc2Oc2ccsc21
2.7	.	CCCCCCCCCCCCCCC(F)C(=O)O (stereo not given)
-2.4	.	CNc1ccccc1C(N)=O
.	3	O=C1CCc2cc(S(=O)(=O)N3CCc4ccccc43)cc3c2N1CC3
1.1	8	COCCn1c(C)cc(/C=C(\C#N)c2ccc(C)cc2)c1C
.	21	Cc1ccc(-c2nc3ccccc3[nH]2)cc1
.	-5	CC(C)C(NS(=O)(=O)c1cccs1)C(=O)NCc1ccccc1Cl (stereo not given)

Not all compounds are listed; count on the stated rates, not on these rows.
